Screening data as filed in PubChem BioAssay.
VACV mCherry inh: vaccinia inhibition (mCherry reporter). Vaccinia virus mCherry reporter infection, fluorescence; about a quarter of the inactives have no number. Potency, µM (highest dose often 36.5 µM), inactives show top-dose activity change, negative = inhibition, hits mostly inhibitors. 310,000 tested, 0.63% active. AID 720579; active = well fitted inhibition curve with a large enough effect; inconclusive = small, poorly fitted or top-dose-only effect; inactive = no such curve, though single readings can be large or run the other way; tested in A549 cells; note: nearly all actives have a fitted effect of over 35% in size; inactives centre near -10
VACV Venus inh: vaccinia inhibition (Venus reporter); Vaccinia virus Venus reporter expression, fluorescence; Potency, µM (titrated, usually from 36.5 µM), without a hit: at the highest dose activity change, negative = inhibition, hits mostly inhibitors; 330,000 tested, 0.46% active; active means well fitted inhibition curve with a large enough effect; inconclusive means small, poorly fitted or top-dose-only effect; inactive means no such curve, though single readings can be large or run the other way; tested in A549 cells; note: nearly all actives have a fitted effect of over 30% in size; inactives centre near -10
An asterisk follows results filed as active; i = inactive; u = inconclusive; x = no result given; & = joins results of further samples; [ ] = another dose, or the depositor's remark. % is set by controls: 0 for no effect and ±100 for the full control effect; potency is the fitted concentration of half-maximal effect.

SMILES	VACV mCherry inh	VACV Venus inh
COc1ccc(S(=O)(=O)N2CCN(C(=O)c3cc4c(s3)CCC4)CC2)cc1	i	-15.2%
CC1Sc2ccc(S(=O)(=O)N(C)Cc3ccccc3)cc2NC1=O (configuration not stated)	-11.6%	-7.9%
CN1C(C(=O)Nc2ccc(F)cc2F)=CC(c2cccs2)=NS1(=O)=O	-18.4%&-1.7%	-13.1%&-1.5%
O=C(NCCc1ccccc1Cl)C1CCC(=O)N(Cc2cccc(C(F)(F)F)c2)C1 (configuration not stated)	-12.4%	-11.1%
Cc1ccc(-c2cc(C(=O)O)n[nH]2)s1	-14.2%	-6.4%
Cc1cc(C)n(-c2nc3ccccc3c(=O)n2OCC(C)C)n1	-7.4%	-8.3%
CCOc1ccc(N2C(=O)/C(=C/c3ccccc3OCC(=O)OC)N(CC(=O)OC)C2=S)cc1	i	-8.5%
CCCn1c(SCC(=O)NC2CC2)nnc1-c1ccccn1	i	-15.2%
COc1ccc(C)cc1NC(=O)CSc1nc(=O)n(Cc2ccco2)c2c1CCC2	-10.9%	-24.1%
Cc1ccc(C)c2c1CCC(=Cc1ccccc1[N+](=O)[O-])C2=O	-17.9%	-12.1%
CCOC(=O)N1CCN(C(=O)c2ccc(CNS(=O)(=O)c3ccc(C)cc3)cc2)CC1	-7.2%	-5.6%
CCN(CC)CCNC(=O)C1c2ccccc2C(=O)N(C)C1c1cn(C)c2ccccc12 (configuration not stated)	x	-24.9%
COc1cc(OC)c2c(=O)c(-c3ccccc3)c(C)oc2c1OC	4.5%	0.0%
CCCc1nnc(NC(=O)CCC(=O)N2CCN(Cc3ccc(Cl)cc3)CC2)s1	-0.9%[7.34 µM]	-15.7%[7.34 µM]
O=C(/C=C/c1ccnc2ccccc12)c1cccs1	i	-19.7%
CCC(=O)C1=C(c2cccc([N+](=O)[O-])c2)N(C(=O)CC)n2c(nnc2C2CCCCC2)S1	u	u
O=C(Nc1ccc(F)c(F)c1)C1CCCN(S(=O)(=O)c2cnc[nH]2)C1 (configuration not stated)	i	-6.3%
Cc1ccccc1/C=C1\C(=O)Nc2ccc(F)cc21	u	-19.4%
COc1ccccc1Cn1c(CNS(=O)(=O)c2ccc(Cl)s2)nc2cccnc21	-13.9%	-10.7%
COc1cc(C(=O)Oc2ccccc2/C=N/NC(=O)c2ccc(Cl)cc2Cl)cc(OC)c1OC	x	u

Reprinted from the part before: 7 entries, followed by the next part.
SMILES	VACV mCherry inh	VACV Venus inh
CCCc1nnc(NC(=O)CCC(=O)N2CCN(Cc3ccc(Cl)cc3)CC2)s1	-0.9%[7.34 µM]	-15.7%[7.34 µM]
O=C(/C=C/c1ccnc2ccccc12)c1cccs1	i	-19.7%
CCC(=O)C1=C(c2cccc([N+](=O)[O-])c2)N(C(=O)CC)n2c(nnc2C2CCCCC2)S1	u	u
O=C(Nc1ccc(F)c(F)c1)C1CCCN(S(=O)(=O)c2cnc[nH]2)C1 (configuration not stated)	i	-6.3%
Cc1ccccc1/C=C1\C(=O)Nc2ccc(F)cc21	u	-19.4%
COc1ccccc1Cn1c(CNS(=O)(=O)c2ccc(Cl)s2)nc2cccnc21	-13.9%	-10.7%
COc1cc(C(=O)Oc2ccccc2/C=N/NC(=O)c2ccc(Cl)cc2Cl)cc(OC)c1OC	x	u
CCOC(=O)c1ccccc1NC(=O)c1c(N)n(C)c(=O)[nH]c1=O	-7.1%	-16.7%
Cc1ccc(NC(=O)CCNC(=O)N2CC(=O)Nc3ccccc32)cc1Cl	i	-10.4%
COc1ccccc1-c1ccc(=O)n(CC(=O)NCc2ccc3c(c2)OCO3)n1	-11.0%	2.2%
CCc1cc2ccc(OC)cc2nc1SCC(=O)N1CCN(C(=O)c2ccco2)CC1	-8.6%[7.34 µM]	-27.5%[7.34 µM]
N#C/C(=C\C1=C(N2CCOCC2)C(=C/c2cccc([N+](=O)[O-])c2)/CC1)C(=O)Nc1ccccc1F	-8.9%	35.6%[activator]
COC(=O)[C@@]12C[C@@H](CC(=O)NCCCCc3ccccc3)C(=O)N(Cc3ccccc3)C1=CCC(C)(C)C2	u	u
CCOC1=C2CN(S(=O)(=O)c3ccccc3)[C@H](c3ccccc3)C[C@H]2n2c(=O)n(-c3ccccc3)c(=O)n2C1	35.0%[activator]	-8.1%
COc1cccc(N2CC(=O)N(NC(=O)c3sc4nc(C)cc(C)c4c3N)CC2=O)c1	-11.7%	-2.2%
CC1=C(c2ccc(C)cc2)S(=O)(=O)N(Cc2ccc(C(=O)NCc3ccccc3)cc2)C1=O	-24.8%	-22.3%
Cc1nn(-c2ccccc2)c2[nH]c(=O)c(CNc3ccc4c(c3)OCCO4)cc12	-14.3%	-11.4%
CC(Oc1ccc(Cl)cc1Cl)C(=O)NCCN1CCOCC1 (configuration not stated)	-13.3%	-7.5%
COc1ccc(N(C(C)C(=O)N/N=C/c2ccc(OC(C)C)cc2)S(C)(=O)=O)cc1 (configuration not stated)	-13.7%	-12.2%
Cc1ccn(CC(=O)N2CCCC(C(=O)c3cccc4ccccc34)C2)n1 (configuration not stated)	-11.8%	-12.1%
O=C(N/N=C/c1ccc(O)c(O)c1)c1cccc(S(=O)(=O)N2CCCC2)c1	-17.3%	-12.9%
CC(C)Oc1ccc(C(CC(=O)O)NC(=O)C2CCCCC2)cc1 (configuration not stated)	-10.8%	-8.0%
N#Cc1ccc(Cl)cc1NC(=O)CNCc1cccs1	-5.9%	2.0%
O=C(NC1CCCCC1)C1CC(=O)N(Cc2ccccc2)C1 (configuration not stated)	-8.8%	0.0%
O=C(C1CC(=O)N(C2CCCC2)C1)N1CCN(c2cccc(C(F)(F)F)c2)CC1 (configuration not stated)	10µM*	u
COc1ccccc1NC(=S)N/N=C/c1ccc(O)cc1	u	u
CCOC(=O)c1c(NC(=O)c2ccc(OC)c(OC)c2)sc2c1CCCCC2	5.9%	7.1%
COCCN(CCOC)Cc1c(O)ccc2c1O/C(=C\c1ccc(C)o1)C2=O	-3.8%	0.9%
Cc1ccc2[nH]c(=O)c(CN(CCCO)S(=O)(=O)c3c(C)ccc4nsnc34)cc2c1	i	-15.0%
Cc1ccc(C(=O)N2CCN(c3ccc(N4CCOCC4)nn3)CC2)cc1	-5.1%	-15.3%
CC1CCN(C(=O)c2ccccc2NS(=O)(=O)c2ccccc2)CC1	-17.5%	-9.4%
CC1=NN(C(=O)c2ccc(Cn3nc(C)c([N+](=O)[O-])c3C)cc2)C(O)(C(F)(F)F)C1 (configuration not stated)	-22.7%	-12.4%
Cc1nn(-c2nc3ccccc3s2)c(N)c1Sc1ccc(F)cc1	-2.6%	-7.6%
COc1ccc(N2CCN(S(=O)(=O)CCNC(=O)C(c3ccccc3)c3ccccc3)CC2)cc1	-17.9%	-17.3%
O=C(N/N=C/c1cccc([N+](=O)[O-])c1)c1nc2ccccc2c(=O)[nH]1	-18.2%	9.6%
COc1cc(-c2ccccc2)nc2ccccc12	-26.9%	-24.1%
O=C(Cn1sc2ccccc2c1=O)N1CCN(C(=O)c2ccco2)CC1	-7.9%[7.34 µM]	0.0%[7.34 µM]
COc1ccc(Cc2nnc(SCC(=O)NC3CCCC3)o2)cc1	-8.9%	2.2%
COc1ccc(C(=O)Nc2nnc(SCc3cc(=O)c4cc(C)ccc4[nH]3)s2)cc1OC	-15.4%	-4.5%
Cc1cc(S(=O)(=O)N2CCCOC2CNC(=O)C(=O)NCc2ccco2)ccc1F (configuration not stated)	u	-19.4%
O=C(COC(=O)C1CCC1)Nc1cccc(S(=O)(=O)N2CCOCC2)c1	-24.1%	-5.6%
COc1ccc(-c2cc(C(F)(F)F)nc(SCCC(=O)Nc3c(C)cccc3C)n2)cc1	-23.6%	-25.3%
CS(=O)(=O)Nc1ccc(-c2ccc3nccn3c2)cc1	21.1%	7.1%
Cc1c(/C=N/NC(=O)c2cc(=O)[nH]c(=O)[nH]2)c2ccccn2c1C(=O)c1ccccc1	-10.8%	-6.3%
COc1ccccc1CCNC(=O)C1CCN(c2nnc(-n3cccc3CNc3ccc(C)cc3)s2)CC1	-20.0%	-11.4%
COc1ccc(CNc2ncnc3sccc23)cc1OC	-23.7%	-2.6%
Cn1ncc2c(NCc3ccc(F)cc3)ncnc21	-20.4%	-6.2%
COc1ccc(CCNC(=S)NNC(=O)c2c(Br)c(C)nn2C)cc1OC	-23.2%	-8.2%
CC(C)[C@@H]1Cc2[nH][nH]c(=O)c2[C@H](c2ccc(F)cc2)O1	39.5%[activator]	6.0%
COc1ccc(S(=O)(=O)NCCSc2nnnn2-c2ccccc2)cc1OC	-9.4%	-7.5%
O=C(NNC(=O)C1CC2CCC1C2)c1ccccc1 (configuration not stated)	-12.4%	-3.0%
CC1CCC(NC(=O)C2COc3ccccc3O2)CC1 (configuration not stated)	-14.2%	-20.7%
CC(=O)Nc1ccc(S(=O)(=O)N(C)c2ccc(OCCOc3ccccc3F)cc2)cc1	-14.3%	-7.2%
O=S(=O)(c1cccc2nonc12)N1CCCCC1	i	-11.9%
COc1ccc(NC(=O)CN(C)C(=O)C2(c3ccccc3)CCCC2)cc1	-8.3%	3.9%
CCC(CC)C(=O)Nc1cccc(C(=O)Nc2nnc(C)s2)c1	-18.1%	-16.5%
C[C@@H]1CN([C@H](C)CO)C(=O)CCCn2nncc2CO[C@@H]1CN(C)C(=O)Nc1ccc(N2CCCCC2)cc1	-11.8%	-3.2%

Single records (already shown).
COc1ccc(S(=O)(=O)NCCSc2nnnn2-c2ccccc2)cc1OC as listed: VACV mCherry inh = -9.4%; VACV Venus inh = -7.5%
O=S(=O)(c1cccc2nonc12)N1CCCCC1 as listed: VACV mCherry inh = i; VACV Venus inh = -11.9%

(further entries)
SMILES	VACV mCherry inh	VACV Venus inh
COc1ccc(-c2cc(C(=O)N(C)CCc3ccc(OC)c(OC)c3)c3ccccc3n2)cc1	-2.4%	-23.5%
C[C@H](CO)N1C[C@H](C)[C@H](CN(C)Cc2ccncc2)Oc2ccc(NC(=O)Nc3ccc(C(F)(F)F)cc3)cc2CC1=O	-27.8%	u
CCn1c(SCC(=O)N(C)c2c(N)n(Cc3ccccc3)c(=O)[nH]c2=O)nc2ccccc21	-5.1%	-1.8%
CCC(C)NC(=O)c1ccc2c(=O)n3c(nc2c1)CCCCC3 (configuration not stated)	1.3%	-3.7%
COc1ccc(NC(=O)c2c(C)cc(=O)oc2C)c(OC)c1	-16.2%[1.46 µM]	-8.0%
Cc1cc(C)cc(NC(=O)c2oc3ccccc3c2COc2ccccc2)c1	i	-11.8%
O=[N+]([O-])c1cc([N+](=O)[O-])c(Oc2cccc3ccccc23)cc1NN1CCCCC1	-4.3%	-20.4%
C=CCNc1cnn(-c2ccc(C)cc2)c(=O)c1Cl	x	-13.7%
CC(=O)c1ccc(NC(=O)COC(=O)CCN2C(=O)c3cccc([N+](=O)[O-])c3C2=O)cc1	i	-8.9%
CC1(C)CC(=O)C2=C(C1)OC(N)=C(C#N)C2c1ccoc1 (configuration not stated)	-20.0%	-6.3%
COc1ccc(C2=C(C=O)Cc3ccccc3O2)cc1	-7.9%	-20.3%
CCOC(=O)N1CCC(N2CCN(S(=O)(=O)c3ccc(OC)cc3)CC2)CC1	-12.9%	-4.7%
CCCN(CCO)Cc1ccc(Br)cc1	-23.5%	-18.4%
Cc1ccc(Cl)cc1N1CCN(C(=O)Cc2c(C(=O)O)[nH]c3ccc(Cl)cc23)CC1	-16.0%	-5.0%
COc1ccc(NC(=O)C2=CC(c3ccco3)=NS(=O)(=O)N2C)cc1OC	1.2%&-10.1%	3.0%&-7.2%
Cc1cccc(C(C)C)c1NC(=O)COC(=O)CCN1C(=O)C2CC=CCC2C1=O (configuration not stated)	-14.6%	-11.5%
